Vaccinia mCherry = qHTS for Stage-Specific Inhibitors of Vaccinia Orthopoxvirus: mCherry Reporter Primary qHTS | Vaccinia virus mCherry reporter infection, fluorescence; about a quarter of the inactives have no number | Potency, µM (series often up to 36.5 µM), for inactives: top-dose activity change, negative = inhibition, usual class: inhibitors | 0.63% of 310,000 active | AID 720579, 2013; active = well fitted inhibition curve with a large enough effect; inconclusive = small, poorly fitted or top-dose-only effect; inactive = no such curve, though single readings can be large or run the other way; tested in A549 cells; also: nearly all actives have a fitted effect of over 35% in size; inactives centre near -10
VACV Venus inh = qHTS for Stage-Specific Inhibitors of Vaccinia Orthopoxvirus: Venus Reporter Primary qHTS | Vaccinia virus Venus reporter expression, fluorescence | Potency, µM (titrated, usually from 36.5 µM), for inactives: top-dose activity change, negative = inhibition, hits mostly inhibitors | 0.46% of 330,000 active; active means well fitted inhibition curve with a large enough effect; inconclusive means small, poorly fitted or top-dose-only effect; inactive means no such curve, though single readings can be large or run the other way; tested in A549 cells; also: nearly all actives have a fitted effect of over 30% in size; inactives centre near -10
An asterisk follows results filed as active; i = inactive; ? = inconclusive; . = no result given; & = joins results of further samples; [ ] = remark or other dose. % is scaled to controls: 0 for no effect and ±100 for the full control effect; potency is read from the fitted curve at half-maximal effect.

smiles,Vaccinia mCherry,VACV Venus inh
O=C(/C=C/c1ccc([N+](=O)[O-])cc1)OCc1cnc(-c2ccccc2)o1,-13.4%,-1.8%
O=C(/C=C/c1cccc([N+](=O)[O-])c1)N1CC[C@@]2(O)CCCC[C@H]2C1,i[7.34 µM],-20.3%[7.34 µM]
COC(=O)c1cc(OC)c(OC)cc1NC(=S)N1CCCC1,6.9%,-10.2%
OC[C@@H]1CN(Cc2ccc(Cl)cc2)C[C@H](n2cnc3c(NC4CCC4)ncnc32)O1,-11.3%,-6.5%
O=C(O)CCc1nc(-c2ccccc2Cl)no1,.,-1.5%
C1=CCN(c2nc(N3CCOCC3)nc(N3CCCc4ccccc43)n2)CC1,i,-14.7%
CC1=C(N2CC2)C(=O)C(CO)=C(N2CC2)C1=O,0.355µM*,0.355µM*
CC(NC(=O)C1CCC(=O)N1Cc1ccc(F)cc1)c1ccc2c(c1)OCCO2 (configuration not stated),i,-7.0%
COCC(=O)NNC(=O)c1ccc(OC)cc1,i,-1.5%
O=C(C1CCC(Cn2c(=O)c3sccc3n(Cc3cccc(F)c3)c2=O)CC1)N1CCOCC1 (configuration not stated),-7.6%,-4.5%
Cc1ccc(O)c(NC(=O)C2=CC(c3cccs3)=NS(=O)(=O)N2C)c1,-18.0%&-3.9%,-18.3%&-6.8%
COc1ccccc1C(=O)NC(=O)COC(=O)Cn1[nH]c(=O)c2ccccc2c1=O,-21.2%,-15.6%
O=C(NCCc1cccs1)C1CC(c2c(Cl)cccc2Cl)=NO1 (configuration not stated),-17.9%,-7.4%
Cc1ccc(Sc2cc(C(=O)c3ccccc3C(=O)O)ccc2[N+](=O)[O-])cc1,-9.3%,-11.6%
CCC1([N+](=O)[O-])COC(c2ccc(Cl)cc2)OC1 (configuration not stated),-10.2%,4.0%
COc1ccc(C2=NN(S(C)(=O)=O)C(c3cccs3)C2)cc1 (configuration not stated),i,-3.8%
CN(C)CCn1c(=O)n(-c2ccc(F)cc2)c(=O)c2c3c(sc21)CCCCC3,i,-1.0%
COc1cc(OC)cc(-c2cc3ccc(F)cc3cn2)c1,?,?
OCC(O)C(O)C(O)C(O)C(O)CO (configuration not stated),-11.7%,-16.9%
Cc1ccc(C)c(CN2C(=O)C(O)(c3c[nH]c4ccccc34)c3ccccc32)c1 (configuration not stated),-20.4%,-20.7%
Cc1ccc(-c2nc3cc(NC(=O)C(C)C)ccc3o2)cc1,.,?
Cc1ccc(S(=O)(=O)N[C@H](C(=O)OCC(=O)NC(=O)c2cccn2C)C(C)C)cc1,i,-5.3%
CC1CN(CCC(=O)NCc2ccc3ncccc3c2)Cc2cc(Cl)ccc2O1 (configuration not stated),-7.7%,7.6%
CC(=O)Nc1cccc(N(C)S(C)(=O)=O)c1,-13.1%,-10.9%
O=C(OCC12CC3CC(CC(C3)C1)C2)c1ccc(NCc2cc(O)ccc2O)cc1,?,?
CC1OC(Oc2c(-c3cc(O)c(O)c(O)c3)oc3cc(O)cc(O)c3c2=O)C(O)C(O)C1O (configuration not stated),-0.5%,-0.6%
O=C(O)CC1(CC(=O)NCc2cccc(Cl)c2)CCCCC1,i,-11.9%
CCCCc1ccc(NC(=S)N2CCN(c3ncccn3)CC2)cc1,-18.5%,-15.4%
O=C(N/C(=C\c1cccc([N+](=O)[O-])c1)C(=O)N1CCOCC1)c1ccco1,-2.3%,-17.5%
Clc1ccc(CSc2nnc(-c3c[nH]c4ccccc34)o2)cc1,i,-16.8%
COc1ccc(CN2CCc3nnc(CNC(=O)c4cc(C)oc4C)n3CC2)c2ccccc12,i,-14.6%
Cc1ccccc1NC(=S)N(CCCN1CCOCC1)Cc1cccs1,-21.9%,-19.9%
COc1ccc(CCNC(=O)Cc2ccc(NC(=O)N3CCSc4ncccc43)cc2)cc1OC,-13.3%,-18.9%
O=C(Cn1nc(Cc2cccnc2)c2ccccc2c1=O)N1CCN(c2ccccn2)CC1,-3.7%,-13.9%
COc1ccccc1C(=O)ON=C1c2ccccc2-c2ccccc21,?,-19.4%
CCOC(=O)C1=CCN(S(C)(=O)=O)C1c1ccc(C)cc1 (configuration not stated),42.4%[activator],-0.4%
COc1ccc(CCN(C)C(=O)CN2C(=O)NC3(CCCc4ccccc43)C2=O)cc1OC (configuration not stated),-17.1%,-16.1%
C=Cn1c(P(=S)(N2CCOCC2)N2CCOCC2)cc2c1CCCC2,?,-8.2%
Nc1nc(SCC(=O)NCCCO)nc2sc3c(c12)CCC3,-7.2%,-8.6%
O=c1[nH]ncc(N2CCCCC2)c1Cl,i,-9.7%
COc1ccc2nc3c(c(-c4ccccc4)c2c1)CCC3,13.8%,-5.9%
CC(C)[C@@H]1CC[C@@H](C)C[C@H]1OC(=O)C[n+]1cc(-c2ccc(Cl)cc2)n2c1CCCCC2,i,-24.2%
COc1ccc(CNC(=O)C2CCCN2S(=O)(=O)c2ccc(Cl)cc2)cc1 (configuration not stated),i,0.4%
COc1ccc2nc3n(c(=O)c2c1)-c1cc2ccccc2cc1C(=O)NC3Cc1ccccc1 (configuration not stated),?,?
COc1ccc(CCNC(=O)Cn2ncc3c(C)n(Cc4ccccc4F)c(C)c3c2=O)cc1OC,-0.3%,-9.3%
CCCCCn1c(-c2ccco2)nc2nc3ccccc3nc21,.,-3.2%
Cc1ccc(C(C(=O)NC(C)(C)C)N(Cc2ccco2)C(=O)Cn2nnc(-c3cccs3)n2)cc1 (configuration not stated),-9.6%,-15.6%
CC(C)NC(=O)Cn1c(SCC(=O)NC2CCCC2)nc2ccccc21,6.0%,-0.2%
COc1ccc(NC(=O)C2CCN(S(=O)(=O)c3c(C)noc3/C=C/c3cccs3)CC2)cc1Cl,-9.8%[7.34 µM],-13.9%[7.34 µM]
Cc1cccc(-c2nc3c(c(SCC(N)=O)n2)CCCC3)c1,.,-17.8%
CC(Cc1cccs1)NC(=O)Nc1ccccc1 (configuration not stated),-17.8%,-11.9%
CCCCCc1cc(=O)oc2c(C(CCN3CCCCC3)c3cc(OC)c(OC)c(OC)c3)c(OC)cc(OC)c12 (configuration not stated),?,15.8µM*
CNC(=O)OCCc1n(C)cc[n+]1C,-0.2%,4.8%
CCOCCCNC(=O)c1ccc2c(c1)ncn2-c1cccc(C)c1,i,-13.2%
C=CCNC(=O)N1CCCC(C(=O)c2cccc(Cl)c2)C1 (configuration not stated),i,-7.7%
Cc1cc(Br)ccc1NC(=S)NCCc1ccccc1,i,-9.2%
COc1ccc(-c2noc(CSc3nnc(Cc4ccccc4)n3-c3ccccc3)n2)cc1OC,-12.6%,-14.5%
C[C@@H]1CCCCO[C@H](CN(C)Cc2ccc3c(c2)OCO3)[C@H](C)CN([C@@H](C)CO)C(=O)c2cc(NC(=O)c3ccccc3)ccc2O1,?,?
N#Cc1ccccc1NC(=O)CNc1cc(S(=O)(=O)N2CCOCC2)ccc1NCC1CCCO1 (configuration not stated),-13.1%,-7.8%
c1ccc2c(c1)nnn2Cn1nnc2ccccc21,i,2.2%

Other entries.
Below each SMILES – Vaccinia mCherry, VACV Venus inh
COc1ccc(CNC(=O)C2CC(c3ccc(OC)cc3)=NO2)cc1 (configuration not stated)
→ -19.3%, -7.8%
Cc1ccc(C(=O)COC(=O)c2cn(-c3ccccc3)nc2-c2ccccc2)cc1[N+](=O)[O-]
→ -13.2%, -10.1%
COc1cccc(OC)c1NC(=O)C1CCCN1C(=O)Nc1cccc(Cl)c1 (configuration not stated)
→ i, -0.9%
C[C@H](CO)N1C[C@H](C)[C@@H](CN(C)C(=O)Nc2ccccc2)Oc2c(NC(=O)NC3CCCCC3)cccc2C1=O
→ -3.8%, -12.4%
Cc1cccc(OC(=O)n2c(=S)oc3cc(Cl)ccc32)c1
→ -17.5%, -15.7%
CCOC(=O)c1c(C)c(C(=O)O)n(C)c1C
→ -14.4%, 5.1%
CC(C)c1ccc(Cc2cn3cc(-c4cc5ccccc5oc4=O)nc3s2)cc1
→ ?, ?
CC(C)c1cc(N=O)cc(C(C)C)c1O
→ i, -11.9%
CCCCc1nc2ccccc2c(=O)n1-c1ccccc1[N+](=O)[O-]
→ -22.7%, -4.6%
COc1ccc(CN2CCOc3ccc(CN4CCC(Oc5cccnc5)CC4)cc3C2)c(F)c1
→ -9.9%, -27.7%
CSCCC(C(=O)Nc1c(C)cccc1C)N1CCN(C/C=C/c2ccccc2)CC1 (configuration not stated)
→ 28.3%, 10.4%
COCCCNC(=S)NCCCNc1nc2cc3c(cc2cc1C#N)OCO3
→ -18.9%, 2.0%
Cc1nc(-c2ccccc2)sc1-c1nc(-c2ccccc2)ncc1S(=O)(=O)c1ccccc1
→ -0.1%, -15.0%
CCCCOc1ccc(NC(=O)C2OC3OC(C)(C)OC3C3OC(C)(C)OC23)cc1 (configuration not stated)
→ i, -1.6%
Cc1cc(=O)n(C)c(=O)n1CC(=O)N1CCCCCC1
→ -9.2%, -6.3%
COc1ccc(C(=O)CCN2CCCC(C)C2)cc1 (configuration not stated)
→ -19.4%, -9.0%
O=C(CCCC(=O)NCc1ccc(F)cc1)NCc1ccc(F)cc1
→ i, -6.8%
CC(C)(C)c1ccc(C(=O)NNC(=O)c2ccc(Cl)cc2)cc1
→ -9.8%, -3.8%
Cc1noc(C(=O)Nc2c(C)nn(Cc3ccccc3)c2C)c1Cl
→ i, -12.9%
Cc1cc(-c2ccc(S(=O)(=O)N3CCN(C)CC3)s2)on1
→ -13.1%, -5.6%
Cc1ccc(C)c(Nc2nc(-c3ccccc3)c3cc(Br)ccc3n2)c1
→ 2.6%, 8.6%
Cn1c(CNc2ccccc2)nc2ccccc21
→ ., -13.2%
CCOC(=O)CC(NC(=O)Cn1nnc(-c2ccc(C(F)(F)F)cc2)n1)c1ccc(C)cc1 (configuration not stated)
→ -16.9%, -8.6%
Cc1ccc(OC(C)C(=O)Nc2ccccc2C(=O)N2CCN(C)CC2)cc1 (configuration not stated)
→ -10.6%, -3.5%
Cc1cc([N+](=O)[O-])nn1CC(=O)N/N=C/c1ccccc1F
→ -8.3%, -11.8%
CCC(C)NC(=O)c1ccccc1NC(=O)C1CCN(S(=O)(=O)Cc2ccccc2)CC1 (configuration not stated)
→ 0.2%, 1.5%
CCCCCC(=O)NC(=S)Nc1cccc(C(C)=O)c1
→ -7.4%, -15.4%
CCC(=O)Nc1ccc(C(=O)NNC(=O)c2ccc([N+](=O)[O-])cc2)cc1
→ i, -5.6%

Grouped by structure: those above with a Cl atom (16)
Below each SMILES – Vaccinia mCherry, VACV Venus inh
OC[C@@H]1CN(Cc2ccc(Cl)cc2)C[C@H](n2cnc3c(NC4CCC4)ncnc32)O1
→ -11.3%, -6.5%
O=C(O)CCc1nc(-c2ccccc2Cl)no1
→ ., -1.5%
O=C(NCCc1cccs1)C1CC(c2c(Cl)cccc2Cl)=NO1 (configuration not stated)
→ -17.9%, -7.4%
CCC1([N+](=O)[O-])COC(c2ccc(Cl)cc2)OC1 (configuration not stated)
→ -10.2%, 4.0%
CC1CN(CCC(=O)NCc2ccc3ncccc3c2)Cc2cc(Cl)ccc2O1 (configuration not stated)
→ -7.7%, 7.6%
O=C(O)CC1(CC(=O)NCc2cccc(Cl)c2)CCCCC1
→ i, -11.9%
Clc1ccc(CSc2nnc(-c3c[nH]c4ccccc34)o2)cc1
→ i, -16.8%
O=c1[nH]ncc(N2CCCCC2)c1Cl
→ i, -9.7%
CC(C)[C@@H]1CC[C@@H](C)C[C@H]1OC(=O)C[n+]1cc(-c2ccc(Cl)cc2)n2c1CCCCC2
→ i, -24.2%
COc1ccc(CNC(=O)C2CCCN2S(=O)(=O)c2ccc(Cl)cc2)cc1 (configuration not stated)
→ i, 0.4%
COc1ccc(NC(=O)C2CCN(S(=O)(=O)c3c(C)noc3/C=C/c3cccs3)CC2)cc1Cl
→ -9.8%[7.34 µM], -13.9%[7.34 µM]
C=CCNC(=O)N1CCCC(C(=O)c2cccc(Cl)c2)C1 (configuration not stated)
→ i, -7.7%
COc1cccc(OC)c1NC(=O)C1CCCN1C(=O)Nc1cccc(Cl)c1 (configuration not stated)
→ i, -0.9%
Cc1cccc(OC(=O)n2c(=S)oc3cc(Cl)ccc32)c1
→ -17.5%, -15.7%
CC(C)(C)c1ccc(C(=O)NNC(=O)c2ccc(Cl)cc2)cc1
→ -9.8%, -3.8%
Cc1noc(C(=O)Nc2c(C)nn(Cc3ccccc3)c2C)c1Cl
→ i, -12.9%
